Vaccinia stage: Vaccinia orthopox stage-specific inhibition. 89,000 compounds, 0.01% hits. Vaccinia-infected cells, mCherry/Venus stage reporter fluorescence; stronger effect = lower value; some inactives read as strong as hits. activity change (mCherry), % (no concentration beside the values);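 active means mCherry past -33% and 40 or more points under the early reporter, replicates agreeing; inconclusive means past -33% without that gap or agreement; tested in A549 cells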;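 further: scaled between vehicle wells and reference inhibitor wells; 23 nL library stock went into each well; one replicate is shown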
Vaccinia stage Venus: also measured in Vaccinia stage; calls as there; activity change (Venus), %; measured here: Venus reporter, other viral stage;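 negative = less Venus signal; first of two replicates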
An asterisk follows results filed as active; ? = inconclusive; . = no result given; & = joins results of further samples.

structure	Vaccinia stage	Vaccinia stage Venus
C[C@@H]1CN([C@@H](C)CO)C(=O)c2cc(NS(=O)(=O)c3ccccc3)ccc2O[C@H]1CN(C)S(C)(=O)=O	17	8
Cc1noc(C)c1S(=O)(=O)N(C)C[C@@H]1OCCCC[C@@H](C)Oc2ccc(NS(C)(=O)=O)cc2C(=O)N([C@H](C)CO)C[C@@H]1C	-6	-11
C[C@H](CO)N1C[C@H](C)[C@@H](CN(C)Cc2ccc(Oc3ccccc3)cc2)Oc2c(NC(=O)NC3CCCCC3)cccc2C1=O	-19	-15
O=C(C[C@@H]1C[C@H]2c3cc(NC(=O)C4CCOCC4)ccc3O[C@H]2[C@@H](CO)O1)NCC(F)(F)F	8	9
CO[C@H]1CN(C)C(=O)c2cc(NC(=O)c3ccccc3)ccc2OC[C@@H](C)NC[C@@H]1C	-11	-6
CCCN(C)C[C@@H]1OCCCC[C@@H](C)Oc2ccc(NC(=O)c3ccccc3)cc2C(=O)N([C@H](C)CO)C[C@@H]1C	-23&-17	-13&-16
COc1ccc(S(=O)(=O)Nc2ccc3c(c2)C(=O)N(C)C[C@H](OC)[C@H](C)CN[C@@H](C)CO3)cc1	1	2
C[C@@H]1CN([C@H](C)CO)C(=O)Cc2cc(NC(=O)NC3CCCCC3)ccc2O[C@H]1CN(C)CC1CC1	9	11
CN(C)C(=O)c1ccc(-c2ccc([C@@H]3[C@H](C#N)N(C(=O)C4CCC4)[C@H]3CO)cc2)cc1	-14	-11
CC(C)NC(=O)N(C)C[C@@H]1Oc2ccc(NS(=O)(=O)c3ccc(Cl)cc3)cc2CC(=O)N([C@@H](C)CO)C[C@H]1C	-5	1
O=C(Nc1ccc2c(c1)[C@@H]1C[C@H](CC(=O)N3CCc4ccccc4C3)O[C@H](CO)[C@@H]1O2)c1cccnc1	-14	2
C[C@H]1CN([C@@H](C)CO)C(=O)c2cccc(NC(=O)Nc3ccc(F)cc3)c2O[C@H]1CN(C)Cc1ccccc1	-34	-29
O=C1CN(S(=O)(=O)c2ccccc2)C[C@H]2[C@H](c3ccc(Br)cc3)[C@@H](CO)N12	-31	-35
CCN(C[C@@H]1N[C@@H](CO)[C@@H]1c1ccc(C2=CCCC2)cc1)C(=O)c1ccncc1	-14	-15
Cc1noc(C)c1NC(=O)N(C)C[C@H]1Oc2ccc(NC(=O)Nc3cccc4ccccc34)cc2CC(=O)N([C@@H](C)CO)C[C@H]1C	2	0
Cc1noc(C)c1NC(=O)N(C)C[C@H]1Oc2c(NS(=O)(=O)c3cccs3)cccc2C(=O)N([C@H](C)CO)C[C@@H]1C	4	10
CO[C@@H]1CN(C)C(=O)c2cc(NC(C)=O)ccc2OC[C@@H](C)N(CC2CC2)C[C@H]1C	-4	-6
O=C(NC1CCCCC1)N[C@@H]1CC[C@@H](CC(=O)N2CCOCC2)O[C@H]1CO	8	5
O=C(C[C@H]1C=C[C@@H](NC(=O)c2ccc3c(c2)OCO3)[C@@H](CO)O1)NCc1ccc(Oc2ccccc2)cc1	-30	-17
O=C(C[C@@H]1CC[C@@H]2[C@H](COC[C@H](O)CN2C(=O)c2cccnc2)O1)NCC1CC1	17	10

The list goes on:
structure	Vaccinia stage	Vaccinia stage Venus
C[C@@H]1CCCCO[C@@H](CN(C)CC2CCCCC2)[C@H](C)CN([C@@H](C)CO)C(=O)c2cc(N(C)C)ccc2O1	-6	-4
COc1ccc(S(=O)(=O)Nc2ccc3c(c2)C(=O)N([C@H](C)CO)C[C@H](C)[C@H](CN(C)S(=O)(=O)c2ccccc2)O3)cc1	11	6
COc1cccc(-c2ccc([C@H]3[C@H](CO)N4CCCCN(CC5CCOCC5)C[C@@H]34)cc2)c1	6	7
CCS(=O)(=O)N1CCCCN2[C@H](CO)[C@@H](c3ccc(-c4ccc(C#N)cc4)cc3)[C@H]2C1	2	6
CO[C@H]1CN(C)C(=O)c2cc(NC(=O)NC(C)C)ccc2OC[C@@H](C)N(C(=O)CC2CC2)C[C@H]1C	17	18
CN(C)C(=O)C[C@H]1C[C@H]2c3cc(NC(=O)CC4CC4)ccc3O[C@H]2[C@H](CO)O1	-7	-6
CO[C@@H]1CN(C)C(=O)c2cc(NS(=O)(=O)c3cn(C)cn3)ccc2OC[C@H](C)NC[C@@H]1C	19	8
COC(=O)C[C@H]1C[C@@H]2c3cc(NC(=O)C4CCOCC4)ccc3O[C@@H]2[C@@H](CO)O1	9	7
CCCC#Cc1ccc2c(c1)O[C@@H](CN(C)S(C)(=O)=O)[C@@H](C)CN([C@H](C)CO)S2(=O)=O	-11	-6
COc1cccc(NC(=O)C[C@H]2CC[C@H]3[C@H](COc4ccc(NC(=O)C5CCOCC5)cc4C(=O)N3C)O2)c1	7	7
C[C@@H]1CN([C@@H](C)CO)C(=O)c2cc(NC(=O)Nc3ccccc3)ccc2O[C@@H](C)CCCCO[C@H]1CN(C)C(=O)C1CCCCC1	-26	-16
COc1cccc(NC(=O)N(C)C[C@H]2Oc3cc(-c4ccccc4F)ccc3S(=O)(=O)N([C@@H](C)CO)C[C@@H]2C)c1	?	.
C[C@@H]1CN([C@@H](C)CO)C(=O)c2cccc(NC(=O)C3CC3)c2O[C@@H]1CN(C)S(=O)(=O)c1ccc(Cl)cc1	-3	-2
C[C@@H]1CN([C@H](C)CO)C(=O)c2cc(C#CCc3ccccc3)cnc2O[C@H]1CN(C)C(=O)C1CCC1	10	0
CCCNC(=O)C[C@H]1CC[C@H]2[C@@H](COC[C@@H](O)CN2C(=O)Nc2cccc(Cl)c2)O1	1	-1
C[C@H]1CN([C@@H](C)CO)C(=O)c2cc(NC(=O)Nc3ccc(C(F)(F)F)cc3)ccc2O[C@H]1CN(C)C(=O)Nc1ccc(F)cc1	-5	-10
O=C(C[C@H]1C=C[C@H](NS(=O)(=O)c2ccc(F)cc2)[C@@H](CO)O1)NC1CCC1	11	2
N#C[C@@H]1[C@@H](c2ccc(C#CC3CCCCC3)cc2)[C@H](CO)N1S(=O)(=O)c1ccccc1	-34	-25
Cc1ccccc1-c1ccc([C@@H]2[C@@H](CO)N3CCCCN(C(=O)c4cccnc4)C[C@H]23)cc1	-4	-2
O=C(C[C@@H]1CC[C@H]2[C@@H](COC[C@@H](O)CN2Cc2nccs2)O1)NCc1ccc(Cl)cc1	-5	-1

Next part
structure	Vaccinia stage	Vaccinia stage Venus
O=C(C[C@H]1C[C@H]2c3cc(NC(=O)c4ccc5c(c4)OCO5)ccc3O[C@H]2[C@H](CO)O1)NC1CCCC1	9	7
C=CCOC(=O)[C@H]1[C@@H]2C(=O)O[C@@H](c3ccccc3)[C@@H](c3ccccc3)N2[C@@H](c2ccc(OCCOC(=O)[C@@H]3C[C@@H]4C(=O)N[C@@H](Cc5ccccc5)C(=O)N4[C@@H]3c3ccc(O)cc3)cc2)[C@]12C(=O)Nc1ccc(I)cc12	6	-2
O=C(C[C@@H]1CC[C@H](NC(=O)C2CC2)[C@@H](CO)O1)Nc1nccs1	6	7
COc1ccc(C#Cc2ccc([C@H]3[C@H](CO)N4CCCCN(C(=O)Nc5ccccc5F)C[C@@H]34)cc2)cc1	?	.
COc1cccc(-c2ccc3c(c2)[C@@H]2[C@@H](CCN2C(=O)C2CC2)[C@H](CO)N3)c1	-4	-2
CC(C)(O)C#Cc1ccc([C@@H]2[C@H](CO)N3CCCCN(C(=O)c4ccncc4)C[C@@H]23)cc1	36	11
CN1C(=O)c2cc(NS(C)(=O)=O)ccc2OC[C@H]2O[C@H](CC(=O)NCc3ccccc3)CC[C@@H]21	12	3
Cc1ccc(S(=O)(=O)Nc2ccc3c(c2)C(=O)N([C@H](C)CO)C[C@H](C)[C@H](CN(C)S(=O)(=O)c2c(C)noc2C)O3)cc1	33	30
CCNC(=O)C[C@H]1CC[C@@H]2[C@H](COc3ccc(NS(C)(=O)=O)cc3C(=O)N2C)O1	14	5
Cc1noc(C)c1NC(=O)N[C@@H]1C=C[C@H](CC(=O)Nc2ccc(-c3ccccc3)cc2)O[C@@H]1CO	2	1
COc1ccc(S(=O)(=O)Nc2ccc3c(c2)CC(=O)N([C@H](C)CO)C[C@@H](C)[C@H](CN(C)C(=O)Nc2c(C)noc2C)O3)cc1	8	5
Cc1noc(C)c1NC(=O)Nc1ccc2c(c1)C(=O)N([C@@H](C)CO)C[C@H](C)[C@@H](CN(C)S(=O)(=O)c1cn(C)cn1)OCCCC[C@@H](C)O2	-1	-4
COCC#Cc1ccc2c(c1)O[C@H](CN(C)C(=O)NC(C)C)[C@H](C)CN([C@H](C)CO)S2(=O)=O	-6	-5
C[C@H]1CN([C@@H](C)CO)C(=O)Cc2cc(NS(=O)(=O)c3cccs3)ccc2O[C@H]1CN(C)Cc1ccc(C(=O)Nc2ccccc2N)cc1	3	11
O=C(C[C@H]1C=C[C@H](NC(=O)Nc2ccc3c(c2)OCO3)[C@H](CO)O1)NCc1ccc(Cl)cc1	6	12
COc1ccc(NC(=O)N(C)C[C@H]2OCCCC[C@@H](C)Oc3ccc(NC(=O)CCCN(C)C)cc3C(=O)N([C@@H](C)CO)C[C@@H]2C)cc1	21	9
C[C@@H]1CN([C@@H](C)CO)C(=O)c2cc(NS(=O)(=O)c3cccs3)ccc2O[C@@H]1CN(C)S(=O)(=O)c1ccccc1	2	1
COc1cccc(C#Cc2ccc([C@H]3[C@H]4CN(C(=O)Cc5cccnc5)CC(=O)N4[C@H]3CO)cc2)c1	?	.
C[C@@H]1CN([C@H](C)CO)S(=O)(=O)c2ccc(-c3cccc(F)c3)cc2O[C@H]1CN(C)S(=O)(=O)c1ccc(F)cc1	?	.
CC(C)NC(=O)N[C@@H]1CC[C@H](CCNC(=O)C2CCC2)O[C@H]1CO	6	6

Random excerpt: six entries already listed.
structure	Vaccinia stage	Vaccinia stage Venus
O=C(C[C@H]1C=C[C@H](NC(=O)Nc2ccc3c(c2)OCO3)[C@H](CO)O1)NCc1ccc(Cl)cc1	6	12
C[C@@H]1CN([C@H](C)CO)S(=O)(=O)c2ccc(-c3cccc(F)c3)cc2O[C@H]1CN(C)S(=O)(=O)c1ccc(F)cc1	?	.
CCNC(=O)C[C@H]1CC[C@@H]2[C@H](COc3ccc(NS(C)(=O)=O)cc3C(=O)N2C)O1	14	5
COCC#Cc1ccc2c(c1)O[C@H](CN(C)C(=O)NC(C)C)[C@H](C)CN([C@H](C)CO)S2(=O)=O	-6	-5
COc1ccc(S(=O)(=O)Nc2ccc3c(c2)CC(=O)N([C@H](C)CO)C[C@@H](C)[C@H](CN(C)C(=O)Nc2c(C)noc2C)O3)cc1	8	5
CC(C)NC(=O)N[C@@H]1CC[C@H](CCNC(=O)C2CCC2)O[C@H]1CO	6	6

Carrying on:
structure	Vaccinia stage	Vaccinia stage Venus
C[C@H](CO)N1C[C@H](C)[C@@H](CN(C)C(=O)CN(C)C)Oc2cc(C3=CCCCC3)ccc2S1(=O)=O	?	.
Cc1ccc(S(=O)(=O)N(C)C[C@H]2Oc3ccc(NS(=O)(=O)c4cccs4)cc3CC(=O)N([C@H](C)CO)C[C@@H]2C)cc1	-2	7
N#C[C@H]1[C@H](c2ccccc2)[C@@H](CO)N1C(=O)Nc1cccc(F)c1	-25	-30
C/C=C/c1ccc([C@H]2[C@H]3CN(Cc4ccc(C(=O)OC)cc4)CC(=O)N3[C@H]2CO)cc1	2	0
CC(C)NC(=O)Nc1ccc2c(c1)C(=O)N(C)[C@H]1CC[C@H](CC(=O)NCc3ccc(F)cc3)O[C@H]1CO2	10	9
O=C(NCC[C@@H]1CC[C@H](NC(=O)c2ccc3c(c2)OCO3)[C@@H](CO)O1)Nc1cc(F)ccc1F	-7	-6
C[C@H](CO)N1C[C@H](C)[C@@H](CN(C)C(=O)Oc2ccc3ccccc3c2)OCc2cnnn2CCCC1=O	-2	-11
C[C@@H]1CN([C@H](C)CO)C(=O)c2cc(NC(=O)Cn3cnnn3)ccc2O[C@H]1CN(C)Cc1ccc(Cl)c(Cl)c1	7	-1
O=C(Nc1ccccc1F)N1CC(=O)N2[C@H](C1)[C@H](c1ccc(C#CC3CCCC3)cc1)[C@@H]2CO	?	.
O=C(Nc1ccccc1)N1CC(=O)N2[C@H](CO)[C@H](c3ccc(C#CC4CCCC4)cc3)[C@@H]2C1	?	.
CO[C@H]1CN(C)C(=O)c2cc(NS(=O)(=O)c3ccccc3C)ccc2OC[C@H](C)N(S(C)(=O)=O)C[C@H]1C	23	18
Cc1noc(C)c1S(=O)(=O)Nc1ccc2c(c1)CC(=O)N([C@H](C)CO)C[C@H](C)[C@@H](CN(C)C(=O)Nc1cccc3ccccc13)O2	1	5
C[C@@H]1CN([C@H](C)CO)C(=O)c2cc(NC(=O)Nc3cccc4ccccc34)ccc2O[C@@H]1CN(C)Cc1ccc2c(c1)OCO2	?	.
O=C(C[C@@H]1CC[C@H](NC(=O)CN2CCOCC2)[C@H](CO)O1)NC1CCC1	3	8
CN1C(=O)c2cc(NC(=O)C3CCCCC3)ccc2OC[C@H]2O[C@@H](CC(=O)NCC3CCCCC3)CC[C@@H]21	8	14
C[C@@H]1CCCCO[C@@H](CN(C)Cc2ccccc2)[C@H](C)CN([C@@H](C)CO)C(=O)c2cc(NC(=O)Nc3ccccc3)ccc2O1	?	.
C[C@H]1CCCCO[C@H](CN(C)C(=O)c2ccccc2)[C@@H](C)CN([C@@H](C)CO)C(=O)c2cc(NC(=O)CCC(F)(F)F)ccc2O1	-18	-10
COc1ccc(S(=O)(=O)N(C)C[C@@H]2Oc3ccc(NC(=O)c4ccncc4)cc3CC(=O)N([C@H](C)CO)C[C@H]2C)cc1	15	12
COc1cccc(CN2[C@@H](CO)[C@@H](c3ccccc3)C23CN(C(=O)C2CCCCC2)C3)c1	-34	-22

An excerpt from above in order of molar mass, low to high:
structure	Vaccinia stage	Vaccinia stage Venus
CO[C@H]1CN(C)C(=O)c2cc(NS(=O)(=O)c3ccccc3C)ccc2OC[C@H](C)N(S(C)(=O)=O)C[C@H]1C	23	18
COc1ccc(S(=O)(=O)N(C)C[C@@H]2Oc3ccc(NC(=O)c4ccncc4)cc3CC(=O)N([C@H](C)CO)C[C@H]2C)cc1	15	12
Cc1ccc(S(=O)(=O)N(C)C[C@H]2Oc3ccc(NS(=O)(=O)c4cccs4)cc3CC(=O)N([C@H](C)CO)C[C@@H]2C)cc1	-2	7

The list is partial; rates above refer to the full screens.
